Compound activity deposited in PubChem by ICCB-Longwood Screening Facility, Harvard Medical School.
Sa growth inh: inhibitors of Staphylococcus aureus growth at 42 °C | relative growth, % (no concentration beside the values) | 170,000 tested, 0.53% active | S. aureus RN4220 growth, OD600, 20 h; hits give low values;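 active means growth at 42 °C up to 50% and 20 or more points under that at 30 °C, or under 10% at both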;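 further: 300 nL library stock went into each well; scaled to the means of positive and negative controls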
GIV Gai3 FP: GIV-Galpha-i interaction inhibition. P08753. Galpha-i3/FITC-GIV peptide fluorescence polarization, 90 min; hits give low values; scaled: aluminum fluoride 0%, vehicle 100%. percent of control (FP), % (no concentration beside the values). 210,000 tested, 0.42% active. AID 1224905;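 active means replicate mean at 85% of control or lower, very high polarization wells dropped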;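 further: wells of about 15 µL received 100 nL stock; the first replicate is given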
Target sequence (P08753 whole entry, looked up): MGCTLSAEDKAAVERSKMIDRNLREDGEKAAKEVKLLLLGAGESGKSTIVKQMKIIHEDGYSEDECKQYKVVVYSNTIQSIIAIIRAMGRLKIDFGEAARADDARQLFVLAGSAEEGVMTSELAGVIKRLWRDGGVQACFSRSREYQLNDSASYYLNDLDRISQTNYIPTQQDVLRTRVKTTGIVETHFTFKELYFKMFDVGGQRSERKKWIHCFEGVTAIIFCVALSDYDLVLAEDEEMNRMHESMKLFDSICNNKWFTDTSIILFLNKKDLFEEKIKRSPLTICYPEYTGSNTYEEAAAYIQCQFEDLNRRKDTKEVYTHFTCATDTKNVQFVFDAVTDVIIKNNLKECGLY
HCMV UL50-53 inh: cytomegalovirus nuclear egress complex inhibition; HTRF UL50-UL53 interaction, normalized percent inhibition; inhibition, % (concentration not given with the values); 190,000 tested, 0.15% active;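 active means both replicates at 50% or more, plus weaker picks with an unusually low signal ratio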;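 further: stock transfer was 100 nL into about 20 µL; 0% = negative control wells and 100% = wells with untagged competitor protein; inactives centre near -12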
Sa growth inh second temp: second read-out of Sa growth inh, no call of its own (marks repeat the call); relative growth, %; measured here: growth at 30 °C;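 optical density after 20 h as mean of two plates; 100% = untreated growth and lower means inhibition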
* = called active by the depositor; & = joins results of further samples.

`NC(=O)COC(=O)c1cc(-c2cccs2)nc2ccccc12` gave Sa growth inh 93, HCMV UL50-53 inh -52 and Sa growth inh second temp 93.
Screening CN1CCc2nc3sc(C(=O)Nc4ccccc4C(F)(F)F)c(N)c3cc2C1 returned Sa growth inh 100, GIV Gai3 FP 129, HCMV UL50-53 inh -78 and Sa growth inh second temp 94.
Screening CCCCN1N=C(C)CC1=O returned Sa growth inh 80, HCMV UL50-53 inh 11 and Sa growth inh second temp 85.
C=CCC(NCc1ccco1)c1ccc(N(C)C)cc1 (stereo not given) was read as Sa growth inh 96, HCMV UL50-53 inh -16 and Sa growth inh second temp 89.
CN(C)c1ccc(CNC(=O)C2CCN(S(=O)(=O)c3ccc4c(c3)CCCC(=O)N4)CC2)cc1 was read as GIV Gai3 FP 112 and HCMV UL50-53 inh -9.
For Cc1nnc2n1N=CC=C(c1ccccc1)S2 the results were Sa growth inh 94, HCMV UL50-53 inh -50 and Sa growth inh second temp 90.
Screening O=C(CC1SC(=Nc2ccccc2)N(CCCCO)C1=O)NCc1ccccc1 (stereo not given) returned Sa growth inh 90, GIV Gai3 FP 111, HCMV UL50-53 inh 4 and Sa growth inh second temp 100.
CCN(CC)Cc1cc(C(=O)O)co1 was read as Sa growth inh 80, GIV Gai3 FP 107, HCMV UL50-53 inh 10 and Sa growth inh second temp 92.
Screening CCCc1nc2ccccc2c(C(=O)OCC(N)=O)c1CC returned Sa growth inh 99, HCMV UL50-53 inh -9 and Sa growth inh second temp 96.
For CC1=NN(c2ccccc2)C(=O)C1/C=C1\C(=O)NC(=S)N(c2ccc(F)cc2)C1=O (stereo not given) the results were GIV Gai3 FP 104 and HCMV UL50-53 inh -15.
Cc1nnc(SCC(=O)c2cc(C)n(CCC(C)C)c2C)n(N)c1=O was read as Sa growth inh 97, HCMV UL50-53 inh -20 and Sa growth inh second temp 97.
For CSc1nc2ccc(N=Cc3ccc(Sc4nnnn4-c4ccccc4)o3)cc2s1 the results were Sa growth inh 102, HCMV UL50-53 inh -14 and Sa growth inh second temp 92.
Screening Cc1cccc(C)c1NC(=O)c1cnc2ccccn2c1=O returned GIV Gai3 FP 101 and HCMV UL50-53 inh -45.
For CCCN1CCN(CCCNC(=O)Nc2ccc(C)c(C)c2)CC1 the results were GIV Gai3 FP 111 and HCMV UL50-53 inh -24.
For CCOC(=O)N1CCC(c2cc(=O)n(-c3ccccc3)[nH]2)CC1 the results were Sa growth inh 85, GIV Gai3 FP 107, HCMV UL50-53 inh 3 and Sa growth inh second temp 70.
For CC[C@H](NC(=O)c1c(C)c(-c2ccccc2)nc2ccccc12)c1ccccc1 the results were GIV Gai3 FP 106 and HCMV UL50-53 inh -1&5.
`CCOc1ccc(OCCNC(=S)NC)cc1` gave Sa growth inh 80, HCMV UL50-53 inh -12 and Sa growth inh second temp 92.
CCCSc1nc(-c2ccc(OC)cc2)cc(-c2ccccc2OC)c1C#N was read as Sa growth inh 93, GIV Gai3 FP 106, HCMV UL50-53 inh -34 and Sa growth inh second temp 86.
`NC(=O)NOCc1ccccc1` gave Sa growth inh 83, HCMV UL50-53 inh -4 and Sa growth inh second temp 89.
`CCCC(=O)N(c1ccc2oc3c(c2c1)CCCC3)S(=O)(=O)c1ccc(CC)cc1` gave Sa growth inh 96, GIV Gai3 FP 110, HCMV UL50-53 inh -23 and Sa growth inh second temp 90.
`Oc1ccc(CNc2ccccc2O)cc1` gave Sa growth inh 112, GIV Gai3 FP 117, HCMV UL50-53 inh -23 and Sa growth inh second temp 27.
Screening O=C(CSC1=NCCS1)NC1CC1 returned Sa growth inh 86, HCMV UL50-53 inh 8 and Sa growth inh second temp 93.
For Cc1ccc(S(=O)(=O)c2c(C)cc(C)n(CC(=O)Nc3oncc3-c3ccccc3)c2=O)cc1C the results were GIV Gai3 FP 102 and HCMV UL50-53 inh -23.
For Cc1nc(-c2cc(S(=O)(=O)Nc3cccnc3)c(C)s2)no1 the results were GIV Gai3 FP 103 and HCMV UL50-53 inh -40.
`CCOc1ccc(NCc2nc3ccccc3n2CCOc2ccc(C)cc2)cc1` gave Sa growth inh 95, GIV Gai3 FP 102, HCMV UL50-53 inh -24 and Sa growth inh second temp 78.
O=c1[nH]c2ccc(N=Cc3ccc(C#Cc4ccccc4)cc3)cc2o1 was read as Sa growth inh 125, HCMV UL50-53 inh -17 and Sa growth inh second temp 88.
CN1C(=O)c2cccc3c(S(=O)(=O)N(C)C)ccc1c23 was read as Sa growth inh 109, GIV Gai3 FP 95, HCMV UL50-53 inh -102 and Sa growth inh second temp 85.
`CCN(CC)c1ccc2c(=O)[nH][nH]c(=O)c2c1` gave Sa growth inh 106, HCMV UL50-53 inh -10 and Sa growth inh second temp 82.
CCOC(=O)c1ccccc1NC(=O)C1=Cc2ccc(C)cc2OC=C1 was read as GIV Gai3 FP 106 and HCMV UL50-53 inh -20.
O=C(CSc1oc(-c2ccc(F)cc2)nc1S(=O)(=O)c1ccccc1)NC1CCCCC1 was read as Sa growth inh 90, GIV Gai3 FP 103, HCMV UL50-53 inh -10 and Sa growth inh second temp 98.
Screening CC1(C(=O)NC2CCCC2)COc2c(oc3ccccc23)C(=O)N1Cc1cccc(Br)c1 (stereo not given) returned GIV Gai3 FP 103 and HCMV UL50-53 inh -8.
`CCOc1ccccc1N(C)C(=O)c1cn(C)c(=O)c2ccccc12` gave Sa growth inh 102, GIV Gai3 FP 102, HCMV UL50-53 inh 14 and Sa growth inh second temp 93.
CCn1c(=O)c(C(=O)CSc2nnc3ccccn23)c(N)n(Cc2ccccc2)c1=O was read as Sa growth inh 97, HCMV UL50-53 inh -26 and Sa growth inh second temp 83.
`CN(c1ccccc1C(=O)O)S(=O)(=O)c1ccc(F)cc1` gave Sa growth inh 80, GIV Gai3 FP 104, HCMV UL50-53 inh 7 and Sa growth inh second temp 112.
Screening COc1ccc(/C=C(\C#N)c2nc(-c3cc4c(ccc5ccccc54)oc3=O)cs2)cc1O returned Sa growth inh 98, GIV Gai3 FP 105, HCMV UL50-53 inh -50 and Sa growth inh second temp 78.
`CC1(C)CC(=O)C2=C(C1)Nc1ccccc1N(C(=O)Cc1ccccc1)C2c1ccc([N+](=O)[O-])s1` (stereo not given) gave GIV Gai3 FP 104 and HCMV UL50-53 inh -51.
For Nc1nc(CNS(=O)(=O)c2ccccc2)nn1S(=O)(=O)c1ccccc1 the results were Sa growth inh 128, GIV Gai3 FP 107 and Sa growth inh second temp 84.
For Cc1cccc(NC(=O)Cc2c(C)[nH]n(-c3nc(C)cs3)c2=O)c1 the results were GIV Gai3 FP 100 and HCMV UL50-53 inh -20.
`O=C(CSc1nc2sc3c(c2c(=O)[nH]1)CCCC3)NCc1cccnc1` gave GIV Gai3 FP 99 and HCMV UL50-53 inh -17.
For CCCCNC(=O)CN1CCN(c2ccc(NC(=O)c3ccc(OC)cc3)cc2C(=O)O)CC1 the results were Sa growth inh 128, GIV Gai3 FP 101 and Sa growth inh second temp 89.
For Cc1ccc2oc3nc(N)c(-c4ccc(Cl)cc4)cc3c(=O)c2c1 the results were Sa growth inh 107, HCMV UL50-53 inh -7 and Sa growth inh second temp 91.
`Cc1cc(OCC(=O)Nc2ccc3c(c2)OCCO3)cc(C)c1Cl` gave Sa growth inh 106, GIV Gai3 FP 105, HCMV UL50-53 inh -12 and Sa growth inh second temp 115.
For N#CCc1nc(C23CC4CC(CC(C4)C2)C3)cs1 the results were Sa growth inh 97, HCMV UL50-53 inh -22 and Sa growth inh second temp 91.
COc1ccc(-c2nnc(SCC(C)C)o2)cc1 was read as Sa growth inh 64, HCMV UL50-53 inh -13 and Sa growth inh second temp 70.
CC1(C)CC2(CCO1)OC(=O)CC2C(=O)NCc1ccccc1 (stereo not given) was read as Sa growth inh 95, GIV Gai3 FP 110 and Sa growth inh second temp 90.
Screening O=C(O)CC(c1ccc(F)cc1)N1Cc2ccccc2C1=O (stereo not given) returned Sa growth inh 91, GIV Gai3 FP 104, HCMV UL50-53 inh -27 and Sa growth inh second temp 87.
For CN(C)c1ccc(C=NCC2(O)CCOC(C)(C)C2)cc1 (stereo not given) the results were Sa growth inh 88, GIV Gai3 FP 103, HCMV UL50-53 inh -35 and Sa growth inh second temp 92.
Cc1ccc(Cl)cc1N1CCN(c2ncnc3c2nc2n3CCCC2)CC1 was read as Sa growth inh 138, GIV Gai3 FP 105 and Sa growth inh second temp 92.
Screening O=C(O)c1cc(-c2ccc(F)cc2)on1 returned Sa growth inh 101, HCMV UL50-53 inh -3 and Sa growth inh second temp 86.
Screening CCOC(=O)CN(Cc1ccccc1)C(C(=O)NC1CCCCC1)c1ccc(OC)cc1 (stereo not given) returned Sa growth inh 90, GIV Gai3 FP 100, HCMV UL50-53 inh -11 and Sa growth inh second temp 90.

A draw from above in order of SMILES length, low to high.
Screening CCCc1nc2ccccc2c(C(=O)OCC(N)=O)c1CC returned Sa growth inh 99, HCMV UL50-53 inh -9 and Sa growth inh second temp 96.
`CCN(CC)c1ccc2c(=O)[nH][nH]c(=O)c2c1` gave Sa growth inh 106, HCMV UL50-53 inh -10 and Sa growth inh second temp 82.
CC1(C)CC2(CCO1)OC(=O)CC2C(=O)NCc1ccccc1 (stereo not given) was read as Sa growth inh 95, GIV Gai3 FP 110 and Sa growth inh second temp 90.

Going on with the list:
For Cc1cc(NC(=O)Cn2cnc3c(oc4ccccc43)c2=O)no1 the results were Sa growth inh 109, GIV Gai3 FP 105, HCMV UL50-53 inh -8 and Sa growth inh second temp 91.
Screening O=C(O)CCC(=O)N1N=C(c2ccccc2)CC1c1ccccc1F (stereo not given) returned Sa growth inh 103, GIV Gai3 FP 104 and Sa growth inh second temp 100.
`COc1ccc(C2C(C(=O)Nc3ccc(C)cc3C)=C(C)Nc3nc(SC)nn32)cc1OC` (stereo not given) gave Sa growth inh 89, GIV Gai3 FP 99, HCMV UL50-53 inh -1 and Sa growth inh second temp 91.
For S=C1N(CN2CCOCC2)CCN1CN1CCOCC1 the results were Sa growth inh 88, GIV Gai3 FP 111, HCMV UL50-53 inh -62 and Sa growth inh second temp 74.
COC(=O)Cc1csc(Nc2ccccc2)n1 was read as Sa growth inh 106, HCMV UL50-53 inh -6 and Sa growth inh second temp 90.
For N#Cc1oc2ccccc2c1NC(=O)CSc1nnc(-c2ccccc2)n1Cc1ccco1 the results were Sa growth inh 102, HCMV UL50-53 inh -2 and Sa growth inh second temp 79.
For COc1cccc(NC(=O)NCc2ccc3c(c2)CCN3C(=O)c2ccccc2)c1 the results were Sa growth inh 86, GIV Gai3 FP 105 and Sa growth inh second temp 87.
`CCOc1ccc(Sc2cc(C(=O)NCCc3ccccc3)c3ccccc3n2)cc1` gave Sa growth inh 122, GIV Gai3 FP 100 and Sa growth inh second temp 90.
CCCS(=O)(=O)c1cnc(C2COc3ccccc3O2)nc1N (stereo not given) was read as Sa growth inh 95, GIV Gai3 FP 102, HCMV UL50-53 inh -5 and Sa growth inh second temp 92.
CCCCN(CC)c1ncc(C(=O)O)cc1NS(=O)(=O)c1ccc(Br)cc1 was read as GIV Gai3 FP 108 and HCMV UL50-53 inh -2.
For Cc1cc(C)cc(NC(=O)CN(C)S(=O)(=O)c2ccc3[nH]c4c(c3c2)CCCC4)c1 the results were Sa growth inh 122, GIV Gai3 FP 104 and Sa growth inh second temp 102.
Screening NC(=O)N1CCC(=O)Nc2ccccc21 returned Sa growth inh 98, HCMV UL50-53 inh -5 and Sa growth inh second temp 84.
For Cc1cc(/N=C/c2cc(C)n(Cc3ccccc3)c2C)n(CCC#N)n1 the results were Sa growth inh 97, HCMV UL50-53 inh 12 and Sa growth inh second temp 101.
`O=C(O)CCn1cc(C=C2C(=O)NC(=O)NC2=O)c(-c2ccc(F)cc2)n1` gave Sa growth inh 85, HCMV UL50-53 inh -18 and Sa growth inh second temp 88.
Screening CN(C)C(CNC(=O)c1cc2ccccc2cc1O)c1ccccc1 (stereo not given) returned Sa growth inh 116, HCMV UL50-53 inh -56 and Sa growth inh second temp 99.
CCc1ccccc1NC(=O)c1ccc2nc(CCc3ccccc3)oc2c1 was read as Sa growth inh 111, GIV Gai3 FP 97 and Sa growth inh second temp 93.
`COC(=O)C1=CN(C)C=C(C(=O)OC)C1c1cccc(F)c1` gave Sa growth inh 102, GIV Gai3 FP 99, HCMV UL50-53 inh 1 and Sa growth inh second temp 103.

Structural class, those above containing an aryl methoxy group
CCCSc1nc(-c2ccc(OC)cc2)cc(-c2ccccc2OC)c1C#N was read as Sa growth inh 93, GIV Gai3 FP 106, HCMV UL50-53 inh -34 and Sa growth inh second temp 86.
Screening COc1ccc(/C=C(\C#N)c2nc(-c3cc4c(ccc5ccccc54)oc3=O)cs2)cc1O returned Sa growth inh 98, GIV Gai3 FP 105, HCMV UL50-53 inh -50 and Sa growth inh second temp 78.
For CCCCNC(=O)CN1CCN(c2ccc(NC(=O)c3ccc(OC)cc3)cc2C(=O)O)CC1 the results were Sa growth inh 128, GIV Gai3 FP 101 and Sa growth inh second temp 89.
COc1ccc(-c2nnc(SCC(C)C)o2)cc1 was read as Sa growth inh 64, HCMV UL50-53 inh -13 and Sa growth inh second temp 70.
Screening CCOC(=O)CN(Cc1ccccc1)C(C(=O)NC1CCCCC1)c1ccc(OC)cc1 (stereo not given) returned Sa growth inh 90, GIV Gai3 FP 100, HCMV UL50-53 inh -11 and Sa growth inh second temp 90.
`COc1ccc(C2C(C(=O)Nc3ccc(C)cc3C)=C(C)Nc3nc(SC)nn32)cc1OC` (stereo not given) gave Sa growth inh 89, GIV Gai3 FP 99, HCMV UL50-53 inh -1 and Sa growth inh second temp 91.
For COc1cccc(NC(=O)NCc2ccc3c(c2)CCN3C(=O)c2ccccc2)c1 the results were Sa growth inh 86, GIV Gai3 FP 105 and Sa growth inh second temp 87.

An unsorted share of the library (roughly 0.79% active in at least one column).
